AID2073 – inhibitors of Mint1-CaV2.2 protein interaction, biochemical, HTRF (AID 2073). Voltage-dependent N-type calcium channel subunit alpha-1B (Homo sapiens). one-dose inhibition, % at 20 µM; IC50 in µM for titrated hits. hit rate 0.19% among 290,000. HTRF protein-protein interaction, Mint1-CaV2.2; higher % means a stronger effect; in the data active = inhibition mostly above about 51%, no sharp cut-off; inconclusive = no clear call, values can overlap the other calls; inactive = mostly below about 53%; note: some results filed as inactive read as strong as hits
Yfh1-depleted yeast – enhancers of respiration in Yfh1-depleted yeast, dose response, Friedreich's ataxia, plus single-dose screen (AID 1465). hit rate 0.074% among 220,000. one-dose fold induction at 50 µM; EC50 in µM for titrated hits. S. cerevisiae Yfh1-off respiration, WST-1 reduction, 72 h; higher fold induction means a stronger effect;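 active = fold induction of absorbance versus untreated yeast above a set limit, then at least 30% activation at any dose in follow-up; inconclusive = repeats straddling the limit, or above it without dose testing; inactive = fold induction below the set limit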;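 note: activators that raise dye reduction in frataxin-depleted yeast; strong numbers were not always called active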
NS5 inhibitors – Dengue-2 NS5 methyltransferase inhibitors, primary screen, biochemical, confirmation dose response (AID 588689); hit rate 0.3% among 340,000; Dengue-2 NS5 methyltransferase capping enzyme assay, biochemical; higher % means a stronger effect; Genome polyprotein (Dengue virus type 2 (strain 16681-PDK53)); inhibition, % at 25 µM, or IC50 in µM where a hit was titrated; in the data active = a potency from the dose series; inconclusive = inhibition above about 29% without an active follow-up result
West Nile antiviral – West Nile virus antiviral activity, cell-based, CPE readout (AID 1621); West Nile virus-infected cells, CPE inhibition; higher % means a stronger effect; CPE inhibition, % at 10 µM, or IC50 in µM where a hit was titrated; hit rate 0.02% among 290,000; in the data active = a potency from the dose series; inconclusive = CPE inhibition mostly from about 3.7% at the one dose, without a potency; inactive = the rest, 99 in 100 with CPE inhibition below about 2.2%; note: strong numbers were not always called active
HIV fusion peptide – inhibitors of HIV fusion peptide binding, primary screen, biochemical, uHTS, fluorescence dequenching (AID 1986); cell-free peptide binding, fluorescence dequenching, 30 min; higher % means a stronger effect; inhibition, % at 20 µM, or IC50 in µM where a hit was titrated; hit rate 0.3% among 290,000; in the data active = inhibition mostly above about 52%, no sharp cut-off; inactive = mostly below about 76%; note: some results filed as inactive read as strong as hits
NS5 inhibitors pilot replicate – second read-out of NS5 inhibitors, no call of its own (marks repeat the call); inhibition, %; measured here: pilot screen replicate inhibition
* = called active by the depositor; i = inactive; ? = inconclusive; . = not tested or not shown; & = joins results of further samples.

SMILES | AID2073 | Yfh1-depleted yeast | NS5 inhibitors | West Nile antiviral | HIV fusion peptide | others
O=C1c2ccccc2CCCC12N=NCC2c1cccc2ccccc12 (stereo unspecified) | -4.4% | . | 4.8% | . | -6.1%
O=c1cc(-c2c(F)c(F)c(F)c(F)c2F)oc2ccccc12 | -0.2% | i | -6.9% | 1.8% | -2.6%
COc1ccc2c(c1)c(CC(=O)O)c(C)n2C(=O)c1ccc(Cl)cc1 | 12.6% | i | -1.5% | 1.5% | 4.8%
COC(=O)[C@H]1[C@H]2C[C@H]3c4[nH]c5ccccc5c4CCN3C[C@@H]2CC[C@@H]1O | . | . | 2.9%&-24.6% | . | .
OC1(c2ccccc2)CCN(Cc2ccccc2)CC1 | 0.8% | i | -16.4% | -0.1% | 0.2%
Cc1ccc(-c2nc3ccccc3[nH]2)cc1NC(=O)c1ccc2c(c1)OCO2 | 8.4% | i | 4.5% | -0.2% | -4.2%
O=C(N/N=C/c1ccccn1)c1sc2ccccc2c1Cl | 3.2% | i | 2.3% | -0.8% | 1.5%
CC(=O)Nc1ccc(S(=O)(=O)N2CCN(C(=O)c3cccnc3)CC2)cc1 | 1.5% | i | 0.0% | 0.3% | -4.0% | NS5 inhibitors pilot replicate=-2.1
CC(=O)Nc1ccc(-c2cn3cccnc3n2)cc1 | ? | i | 0.0% | 0.6% | 1.0%
CC(C)NS(=O)(=O)c1ccc(NC(=S)NC(=O)c2ccc(-c3ccccc3)cc2)cc1 | -4.0% | i | -4.8% | -0.3% | -4.1%
CC(C)(C)NC(=O)[C@H]1CC[C@H]2[C@@H]3CC[C@H]4NC(=O)C=C[C@]4(C)[C@H]3CC[C@]12C | -15.9% | i | 0.8% | -0.6% | -0.2%
CC(=O)c1cccc(NC(=S)NC(=O)CC(C)(C)C)c1 | -14.8% | i | -3.2% | -0.5% | -3.6%
Cc1ccc(-c2cc(C(=O)N3CCN(c4ccc(F)cc4)CC3)c3ccccc3n2)o1 | 40.7% | i | 0.0% | 0.7% | -0.6%
COc1ccc2c(c1OC)C(=O)OC2C1c2c(cc3c(c2OC)OCO3)CCN1C (stereo unspecified) | 1.9%&3.1% | i | -2.9%&2.2%&2.9% | -0.2%&-0.4% | 1.2%&-2.6%
CC(C)(C(=O)O)c1ccc([C@H](O)CCCN2CCC(C(O)(c3ccccc3)c3ccccc3)CC2)cc1 | 1.2% | . | 0.8% | 1.2% | 2.0%
O=C(Nc1nnc(-c2ccccc2)o1)c1ccc(Cl)cc1 | 21.4% | i | -5.5% | 0.2% | 4.5%
CC12C=CC(=O)C=C1CCC1C2C(=O)CC2(C)C1CCC2(O)C(=O)CO (stereo unspecified) | . | . | -5.2% | . | .
COc1ccccc1-n1c(CNC(=O)c2ccco2)nnc1SCC(=O)Nc1ccc(F)cc1 | -4.9% | i | 3.9% | -0.4% | -3.0%
CN(C)S(=O)(=O)c1ccc(NC(=O)N2CCN(c3ccccc3)CC2)cc1 | 25.4% | . | -6.2% | . | -4.2%
C#C[C@]1(O)CC[C@H]2[C@@H]3CCC4=CC(=O)CC[C@@H]4[C@H]3CC[C@@]21C | . | i | -2.9% | 0.0% | .

Compounds listed so far with four or more nitrogen atoms:
SMILES | AID2073 | Yfh1-depleted yeast | NS5 inhibitors | West Nile antiviral | HIV fusion peptide | others
CC(=O)Nc1ccc(S(=O)(=O)N2CCN(C(=O)c3cccnc3)CC2)cc1 | 1.5% | i | 0.0% | 0.3% | -4.0% | NS5 inhibitors pilot replicate=-2.1
CC(=O)Nc1ccc(-c2cn3cccnc3n2)cc1 | ? | i | 0.0% | 0.6% | 1.0%
COc1ccccc1-n1c(CNC(=O)c2ccco2)nnc1SCC(=O)Nc1ccc(F)cc1 | -4.9% | i | 3.9% | -0.4% | -3.0%
CN(C)S(=O)(=O)c1ccc(NC(=O)N2CCN(c3ccccc3)CC2)cc1 | 25.4% | . | -6.2% | . | -4.2%

The listing picks up, repeating the six entries before the break.
SMILES | AID2073 | Yfh1-depleted yeast | NS5 inhibitors | West Nile antiviral | HIV fusion peptide | others
CC(C)(C(=O)O)c1ccc([C@H](O)CCCN2CCC(C(O)(c3ccccc3)c3ccccc3)CC2)cc1 | 1.2% | . | 0.8% | 1.2% | 2.0%
O=C(Nc1nnc(-c2ccccc2)o1)c1ccc(Cl)cc1 | 21.4% | i | -5.5% | 0.2% | 4.5%
CC12C=CC(=O)C=C1CCC1C2C(=O)CC2(C)C1CCC2(O)C(=O)CO (stereo unspecified) | . | . | -5.2% | . | .
COc1ccccc1-n1c(CNC(=O)c2ccco2)nnc1SCC(=O)Nc1ccc(F)cc1 | -4.9% | i | 3.9% | -0.4% | -3.0%
CN(C)S(=O)(=O)c1ccc(NC(=O)N2CCN(c3ccccc3)CC2)cc1 | 25.4% | . | -6.2% | . | -4.2%
C#C[C@]1(O)CC[C@H]2[C@@H]3CCC4=CC(=O)CC[C@@H]4[C@H]3CC[C@@]21C | . | i | -2.9% | 0.0% | .
Nc1ccn([C@@H]2O[C@H](CO)[C@@H](O)[C@@H]2O)c(=O)n1 | 3.0% | i | -2.2% | ? | 0.3%
CC1(C)S[C@@H]2[C@H](NC(=O)C(NC(=O)N3CCNC3=O)c3ccccc3)C(=O)N2[C@H]1C(=O)O (stereo partly specified) | 13.5% | . | -0.7% | 0.4% | 3.1%
C[C@H]1O[C@@H](O[C@H]2[C@@H](O)C[C@H](O[C@H]3[C@@H](O)C[C@H](O[C@H]4CC[C@@]5(C)[C@H](CC[C@@H]6[C@@H]5C[C@@H](O)[C@]5(C)[C@@H](C7=CC(=O)OC7)CC[C@]65O)C4)O[C@@H]3C)O[C@@H]2C)C[C@H](O)[C@@H]1O | 10.5%&-0.7% | i | 2.9% | 15.2%&12.5% | 0.1%&0.2%
O=C(CNS(=O)(=O)c1ccc(Br)cc1)N1CCOCC1 | -0.1% | i | -3.4% | -0.3% | -3.1% | NS5 inhibitors pilot replicate=-2.1
O=C1Nc2ccc(Cl)cc2[C@@](C#CC2CC2)(C(F)(F)F)O1 | 0.2% | i | . | 1.4% | 4.8%
CN(C)CCCN1c2ccccc2CCc2ccccc21 | -2.0% | i | -0.8% | -0.7% | 0.6%

Screening data from PubChem.

Only part of the results is shown. The share of hits here may be higher or lower than overall.
